High-throughput results as filed in PubChem BioAssay.
Vaccinia inh – blocks a specific stage of Vaccinia orthopoxvirus infection, primary screen, cell-based, single point; Vaccinia-infected cells, mCherry/Venus stage reporter fluorescence; hits give low values; some inactives read as strong as hits; activity change (mCherry), % (test concentration not listed); hit rate 0.01% among 89,000; AID 1053133, 2014;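 active = mCherry past -33% and 40 or more points under the early reporter, replicates agreeing; inconclusive = past -33% without that gap or agreement; tested in A549 cells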;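 also: scaled between vehicle wells and reference inhibitor wells; 23 nL library stock went into each well; one replicate is shown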
Vaccinia inh Venus – further read-out of Vaccinia inh, marked with its call; activity change (Venus), %; measured here: Venus reporter, other viral stage;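 negative = less Venus signal; first of two replicates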
The depositor's hits bear a star; ? = inconclusive; · = no result given; & = joins results of further samples.

Order of values – Vaccinia inh	Vaccinia inh Venus
COCC(=O)N1[C@@H]2CN(C(=O)c3ccccc3)c3ccccc3[C@@H]2[C@@H]1CO
    -5	7
C[C@@H]1CN([C@@H](C)CO)C(=O)c2cc(NC(=O)C3CCCCC3)ccc2O[C@@H](C)CCCCO[C@H]1CN(C)CC1CCCCC1
    ?	·
C[C@@H]1CN([C@@H](C)CO)C(=O)c2ccccc2-c2ccccc2CO[C@@H]1CN(C)C(=O)Nc1ccc(F)cc1
    8	2
COc1cccc(CNC(=O)C[C@@H]2CC[C@H](NC(C)=O)[C@@H](CO)O2)c1
    6	5
CC(C)NC(=O)Nc1ccc2c(c1)C(=O)N([C@@H](C)CO)C[C@H](C)[C@@H](CN(C)S(C)(=O)=O)O2
    15	5
O=S(=O)(c1ccc(F)cc1)N1CCCCN2[C@H](CO)[C@H](c3ccc(-c4ccccc4F)cc3)[C@@H]2C1
    -32	-21
CS(=O)(=O)N1CC2(C1)[C@@H](c1ccccc1)[C@@H](CO)N2Cc1ccc(F)cc1
    0	11
CO[C@@H]1CC[C@@H]2CCN(C)C(=O)[C@@H](C)N(C)C(=O)c3cccc(C#N)c3OC[C@H]1O2
    7	11
CO[C@H](CN(C)C(=O)c1cnccn1)[C@@H](C)CN([C@H](C)CO)S(=O)(=O)c1ccc(Cl)cc1
    15	13
C/C=C/c1ccc2c(c1)O[C@@H](CN(C)C(=O)c1ccc3c(c1)OCO3)[C@@H](C)CN([C@@H](C)CO)S2(=O)=O
    -2	1
N#Cc1ccc(-c2ccc([C@H]3[C@H]4CN(C(=O)Cc5ccccc5)CC(=O)N4[C@H]3CO)cc2)cc1
    -13	-15
COc1ccccc1NC(=O)N(C)C[C@H]1Oc2ncc(C#CCC(C)C)cc2C(=O)N([C@H](C)CO)C[C@@H]1C
    -21	-27
COc1ccc(-c2cn(CC[C@H]3CC[C@@H](NC(=O)CCN4CCCCC4)[C@H](CO)O3)nn2)cc1
    0	12
Cc1ccccc1S(=O)(=O)N1[C@H](CO)[C@@H](c2ccc(C#CC3CCCC3)cc2)[C@@H]1C#N
    -29	-18
N#C[C@@H]1[C@H](c2ccccc2-c2cccc(F)c2)[C@@H](CO)N1S(=O)(=O)c1cccc(F)c1
    -21	-18
COc1cccc(CN2CC3(CN(C(C)=O)C3)c3c(n(C)c4cc(OC)ccc34)[C@H]2CO)c1
    30	23
CCNC(=O)C[C@@H]1CC[C@@H]2[C@@H](COc3ccc(NC(=O)Nc4ccc(Cl)cc4)cc3C(=O)N2C)O1
    -15	-14
O=C(O)C[C@@H]1CC[C@H](NC(=O)c2ccncc2)[C@@H](CO)O1
    5	2
Cc1noc(C)c1NC(=O)N1C[C@@H](O)COC[C@@H]2O[C@@H](CC(=O)N3CCc4ccccc4C3)CC[C@H]21
    0	10
C[C@@H]1CN([C@@H](C)CO)S(=O)(=O)c2ccc(Br)cc2O[C@H]1CN(C)Cc1ccccn1
    4&0	5&-5
CC(C)NC(=O)N(C)C[C@@H]1OCCCC[C@H](C)Oc2ccc(NC(=O)c3ccccc3)cc2C(=O)N([C@@H](C)CO)C[C@H]1C
    11	5
O=C(C[C@H]1C[C@@H]2c3cc(NC(=O)C4CCC4)ccc3O[C@@H]2[C@@H](CO)O1)NCc1ccc(Cl)cc1
    -14	-4
COc1ccc(CN(C)C[C@H]2OCCCC[C@@H](C)Oc3ccc(NS(=O)(=O)c4ccc(F)cc4)cc3C(=O)N([C@H](C)CO)C[C@H]2C)cc1
    ?	·
C/C=C/c1cnc2c(c1)C(=O)N([C@@H](C)CO)C[C@H](C)[C@@H](CN(C)S(=O)(=O)c1cn(C)cn1)O2
    13	-7
C[C@@H]1CN([C@H](C)CO)C(=O)Cc2cc(NC(=O)C3CC3)ccc2O[C@@H]1CN(C)Cc1ccncc1
    4	11
C[C@H]1CN([C@@H](C)CO)C(=O)c2cc(C#CCN(C)C)cnc2O[C@@H]1CN(C)Cc1ccccc1F
    11	-3
C[C@@H]1CN([C@H](C)CO)C(=O)c2cc(NS(=O)(=O)c3cn(C)cn3)ccc2O[C@H]1CN(C)S(=O)(=O)c1ccc(F)cc1
    1	3
C#CCN([C@@H]1C(=O)N2[C@@H]1SC(C)(C)[C@@H]2C(=O)OC)[C@@H](/C=C/C1CC1)[C@H](O)Cc1ccccc1
    -4	-2
COc1ccc2c3c(n(C)c2c1)[C@@H](CO)N(Cc1ccncc1)CC31CCN(C(=O)Cc2ccncc2)CC1
    -5	-7
CC(=O)N1[C@H](CO)[C@H]2c3ccccc3N(C(=O)Nc3cc(F)ccc3F)C[C@H]21
    1	-3

Reprinted at random: 4 records from the list, in no set order.
Order of values – Vaccinia inh	Vaccinia inh Venus
O=C(O)C[C@@H]1CC[C@H](NC(=O)c2ccncc2)[C@@H](CO)O1
    5	2
C/C=C/c1ccc2c(c1)O[C@@H](CN(C)C(=O)c1ccc3c(c1)OCO3)[C@@H](C)CN([C@@H](C)CO)S2(=O)=O
    -2	1
CC(C)NC(=O)Nc1ccc2c(c1)C(=O)N([C@@H](C)CO)C[C@H](C)[C@@H](CN(C)S(C)(=O)=O)O2
    15	5
Cc1ccccc1S(=O)(=O)N1[C@H](CO)[C@@H](c2ccc(C#CC3CCCC3)cc2)[C@@H]1C#N
    -29	-18

Continuation.
Order of values – Vaccinia inh	Vaccinia inh Venus
CN1CCN(C(=O)C[C@H]2CC[C@H]3[C@@H](COC[C@H](O)CN3C(=O)Nc3ccc(Cl)cc3)O2)CC1
    -8	-1
CCCNC(=O)N(C)C[C@@H]1Oc2cc(C3=CCCCC3)ccc2S(=O)(=O)N([C@@H](C)CO)C[C@@H]1C
    -14	-20
C[C@@H]1CN([C@H](C)CO)C(=O)c2cccc(NC(=O)C3CCCCC3)c2O[C@H]1CN(C)Cc1ccc2c(c1)OCO2
    -17	-16
COc1ccc2c3c([nH]c2c1)[C@@H](CO)N(C(=O)C1CCOCC1)CC31CCN(S(C)(=O)=O)CC1
    17	7
O=S(=O)(N[C@H]1CC[C@H](CCn2cc(-c3ccccc3F)nn2)O[C@H]1CO)c1ccc(F)cc1
    -13	2
COc1ccc(CN(C)C[C@@H]2Oc3ccc(NC(=O)Cn4cnnn4)cc3CC(=O)N([C@H](C)CO)C[C@@H]2C)cc1
    8	3
CC(C)NC(=O)NCC[C@H]1CC[C@@H](NC(=O)CCN2CCCCC2)[C@H](CO)O1
    10	2
CN(C)CCCNC(=O)C[C@H]1CC[C@@H]2[C@H](COc3ccc(NC(=O)c4ccc5c(c4)OCO5)cc3C(=O)N2C)O1
    -6	-4
CC(=O)N(C)C[C@@H]1Oc2ncc(C#C[C@H](C)O)cc2C(=O)N([C@@H](C)CO)C[C@H]1C
    29	10
CNC[C@H]1Oc2cc(C#Cc3ccc(F)cc3)ccc2S(=O)(=O)N([C@@H](C)CO)C[C@@H]1C
    ?	·
Cc1noc(C)c1S(=O)(=O)Nc1ccc2c(c1)C(=O)N([C@H](C)CO)C[C@H](C)[C@@H](CN(C)C(=O)Nc1ccccc1)OCCCC[C@@H](C)O2
    15	7
Cc1cc(C(=O)Nc2cccc3c2O[C@H](CN(C)Cc2ccc(C(=O)Nc4ccccc4N)cc2)[C@@H](C)CN([C@@H](C)CO)C3=O)n(C)n1
    -17	-4
C[C@@H]1CCCCO[C@@H](CN(C)CC2CCCCC2)[C@@H](C)CN([C@H](C)CO)C(=O)c2cc(NC(=O)Nc3ccccc3)ccc2O1
    -20	-20
O=C(C[C@@H]1CC[C@H]2[C@@H](COC[C@@H](O)CN2C(=O)c2ccncc2)O1)NC1Cc2ccccc2C1
    7	15
COc1cccc(NC(=O)C[C@H]2CC[C@H]3[C@H](COc4ccc(NC(=O)C5CCCCC5)cc4C(=O)N3C)O2)c1
    -21	-9
CC(C)NC(=O)N(C)C[C@@H]1Oc2ncc(C#CC3CC3)cc2C(=O)N([C@@H](C)CO)C[C@H]1C
    6	-3
Cc1noc(C)c1S(=O)(=O)N(C)C[C@H]1OCCCC[C@H](C)Oc2ccc(NC(=O)Nc3ccc(C(F)(F)F)cc3)cc2C(=O)N([C@H](C)CO)C[C@@H]1C
    27	7
Cc1ccc(S(=O)(=O)Nc2cccc3c2O[C@H](CN(C)S(=O)(=O)c2ccccc2)[C@@H](C)CN([C@H](C)CO)C3=O)cc1
    12	8
C[C@H](CO)N1C[C@H](C)[C@@H](CN(C)C(=O)CCN2CCCCC2)Oc2ncc(C#CCN(C)C)cc2C1=O
    21	14
COc1ccc(S(=O)(=O)N(C)C[C@@H]2Oc3ccc(NC(=O)Nc4cccc5ccccc45)cc3CC(=O)N([C@@H](C)CO)C[C@@H]2C)cc1
    -10	-3
C[C@@H]1CCCCO[C@@H](CN(C)CC2CC2)[C@H](C)CN([C@@H](C)CO)C(=O)c2cc(NC(=O)Nc3ccccc3)ccc2O1
    5	1
COCCNC(=O)[C@H]1[C@H](CO)[C@H]2Cn3c(ccc(-c4ccccc4F)c3=O)[C@H]2N1C(=O)C1CC1
    20	8
N#C[C@@H]1[C@H](c2ccc(C3=CCCC3)cc2)[C@H](CO)N1C(=O)C1CC1
    -9	-4
C[C@H](CO)N1C[C@H](C)[C@@H](CN(C)Cc2ccccc2)Oc2ncc(-c3cccc(F)c3)cc2C1=O
    0	-8
CCC(=O)N(C)C[C@H]1Oc2cc(-c3cccc(C#N)c3)ccc2S(=O)(=O)N([C@@H](C)CO)C[C@@H]1C
    25	8
CC(C)NC(=O)N(C)C[C@@H]1Oc2c(NC(=O)c3ccc(-c4nccs4)cc3)cccc2C(=O)N([C@@H](C)CO)C[C@H]1C
    1	-3
C[C@@H]1CCCCO[C@@H](CN(C)S(=O)(=O)c2ccc(Cl)cc2)[C@@H](C)CN([C@@H](C)CO)C(=O)c2cc(NC(=O)Nc3ccc4c(c3)OCO4)ccc2O1
    11	11
C[C@H]1CN([C@@H](C)CO)C(=O)Cc2cc(NC(=O)Cc3ccccc3)ccc2O[C@H]1CN(C)C(=O)NC1CCCCC1
    -1	1
C[C@@H]1CN([C@@H](C)CO)C(=O)c2cc(-c3ccccc3)cnc2O[C@@H]1CN(C)C(=O)Nc1ccc2c(c1)OCO2
    -8	0
C/C=C/c1ccccc1[C@H]1[C@@H](CO)N(S(=O)(=O)c2cccc(F)c2)[C@H]1C#N
    -3	0
Cc1noc(C)c1NC(=O)Nc1ccc2c(c1)C(=O)N([C@H](C)CO)C[C@@H](C)[C@H](CN(C)Cc1ccc(C(F)(F)F)cc1)OCCCC[C@H](C)O2
    ?	·
CO[C@@H]1CN(C)C(=O)c2ccc(NC(C)=O)cc2OC[C@H](C)N(C(=O)c2cccnc2)C[C@H]1C
    -1	-3
O=C(C[C@H]1CC[C@@H](NC(=O)Nc2ccc(F)cc2)[C@H](CO)O1)NCc1ccccn1
    8	6
Cc1noc(C)c1NC(=O)Nc1ccc2c(c1)C(=O)N([C@@H](C)CO)C[C@H](C)[C@H](CN(C)C(=O)NC(C)C)O2
    24	12
C[C@@H]1CCCCO[C@@H](CN(C)C(=O)Cc2ccccc2)[C@H](C)CN([C@@H](C)CO)C(=O)c2cc(NC(=O)Nc3ccc(C(F)(F)F)cc3)ccc2O1
    -27	-14
CO[C@H]1CN(C)C(=O)c2ccc(NC(=O)C3CCC3)cc2OC[C@H](C)N(C(=O)NC(C)C)C[C@@H]1C
    18	10
C[C@@H]1CN([C@@H](C)CO)C(=O)c2cc(N(C)C)ccc2O[C@@H]1CN(C)C(=O)Nc1cccc2ccccc12
    11	-1
COc1ccc(S(=O)(=O)N(C)C[C@H]2Oc3ccc(NS(=O)(=O)c4ccc(C)cc4)cc3C(=O)N([C@@H](C)CO)C[C@H]2C)cc1
    -11	-11
CCCNC(=O)N1C[C@H]2[C@@H](c3ccccc31)[C@H](CO)N2Cc1ccc2c(c1)OCO2
    10	10
COc1ccc(CN2C[C@@H](O)COC[C@H]3O[C@H](CC(=O)N4CCc5ccccc5C4)CC[C@@H]32)cc1
    -10	-5
CCCNC(=O)N1CC2(CN(C(=O)c3cccc(F)c3)C2)c2c([nH]c3cc(OC)ccc23)[C@@H]1CO
    4	-14
O=C(O)[C@@H]1[C@@H](CO)[C@@H]2Cn3c(ccc(-c4ccccc4F)c3=O)[C@@H]2N1Cc1ccccc1
    6	14
C[C@@H]1CN([C@H](C)CO)C(=O)CCCn2nncc2CO[C@@H]1CN(C)S(C)(=O)=O
    8	3
COc1ccc(NC(=O)Nc2ccc3c(c2)C(=O)N([C@H](C)CO)C[C@H](C)[C@@H](CN(C)C(=O)Nc2cccc4ccccc24)OCCCC[C@@H](C)O3)cc1
    13	10
C/C=C/c1cnc2c(c1)C(=O)N([C@@H](C)CO)C[C@H](C)[C@@H](CN(C)C(=O)NC1CCCC1)O2
    15	9
O=C(Nc1ccccc1)N1C[C@@H]2[C@H](c3ccccc31)[C@H](CO)N2CC1CCCC1
    -3	5
COc1ccc(NC(=O)O[C@H]2[C@H](OC(=O)Nc3ccccc3)[C@H](OC(=O)Nc3ccccc3)[C@@H](OC)O[C@@H]2CO)cc1
    ?	·
Cc1noc(C)c1NC(=O)N(C)C[C@H]1OCc2cnnn2CCCC(=O)N([C@@H](C)CO)C[C@H]1C
    0	-8
C[C@@H]1CN([C@@H](C)CO)S(=O)(=O)c2ccc(-c3ccc(C#N)cc3)cc2O[C@H]1CN(C)C(=O)Nc1cc(F)ccc1F
    ?	·
C[C@@H]1CCCCO[C@H](CN(C)Cc2ccc(Cl)c(Cl)c2)[C@@H](C)CN([C@@H](C)CO)C(=O)c2cc(NC(=O)C3CCCCC3)ccc2O1
    ?	·
C[C@H](CO)N1C[C@H](C)[C@@H](CN(C)C(=O)c2ccncc2)OCCCC[C@H](C)Oc2ccc(NS(C)(=O)=O)cc2C1=O
    3	-1

Some of the compounds tested; rates above refer to the full screens.
